# Compound activity: PubChem, Johns Hopkins Ion Channel Center
# KCNQ2 pot: KCNQ2 (rat) channel potentiation. O88943. B-score at 10 µM. CHO-K1 KCNQ2, FluxOR thallium flux fluorescence; active compounds read high. hit rate 0.54% among 310,000. AID 2239;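 active = fluorescence ratio B-score at least 3 SD of library B-scores, with initial fluorescence B-score within 3 SD, cut at about 5.3 in these data; same plate scores as AID 2156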;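 also: B-score of peak minus minimum over baseline fluorescence ratio after K+ and Tl+ stimulus; positive B-score means potentiation of KCNQ2 with more thallium influx and brighter signal; only the inactives scoring about 0 or higher are listed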
# Target sequence (O88943 whole entry, looked up): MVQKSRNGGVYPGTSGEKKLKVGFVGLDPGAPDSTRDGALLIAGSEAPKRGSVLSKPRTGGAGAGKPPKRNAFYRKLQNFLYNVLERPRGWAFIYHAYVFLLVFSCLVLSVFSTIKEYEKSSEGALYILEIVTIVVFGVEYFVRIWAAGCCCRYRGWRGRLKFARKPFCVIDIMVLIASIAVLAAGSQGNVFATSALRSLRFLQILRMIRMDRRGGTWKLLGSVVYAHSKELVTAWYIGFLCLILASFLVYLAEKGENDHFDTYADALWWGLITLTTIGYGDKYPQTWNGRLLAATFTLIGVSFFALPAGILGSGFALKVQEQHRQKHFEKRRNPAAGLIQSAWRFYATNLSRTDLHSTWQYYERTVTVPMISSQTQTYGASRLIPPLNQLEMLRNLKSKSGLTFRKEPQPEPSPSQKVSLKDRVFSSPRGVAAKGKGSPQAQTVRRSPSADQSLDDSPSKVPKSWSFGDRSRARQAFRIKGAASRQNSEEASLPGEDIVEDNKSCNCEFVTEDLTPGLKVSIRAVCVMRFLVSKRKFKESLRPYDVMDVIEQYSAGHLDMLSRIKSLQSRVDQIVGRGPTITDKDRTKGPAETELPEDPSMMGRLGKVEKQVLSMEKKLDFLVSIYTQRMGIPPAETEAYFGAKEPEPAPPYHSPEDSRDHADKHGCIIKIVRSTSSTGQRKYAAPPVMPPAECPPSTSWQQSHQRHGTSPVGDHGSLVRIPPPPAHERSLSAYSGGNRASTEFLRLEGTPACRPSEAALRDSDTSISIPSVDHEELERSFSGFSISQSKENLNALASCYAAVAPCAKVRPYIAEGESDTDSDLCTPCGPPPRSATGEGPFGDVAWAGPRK
# KCNQ2 pot baseline: recorded beside KCNQ2 pot, whose call it bears; B-score; compound at 10 µM; measured here: initial fluorescence intensity artifact check;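 brightness before thallium and not channel activity; 0 = typical well and far values either way flag optical interference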
# Active calls of the source: *; x = not tested or not shown.
SMILES,KCNQ2 pot,KCNQ2 pot baseline
CCC(C)N1CCN(S(=O)(=O)c2ccc3ccccc3c2)CC1 (centres undefined),0.68,0.05
Cc1cccc(NC(=O)C2CCN(S(=O)(=O)c3cccc4cccnc34)CC2)n1,0.69,-1.1
COC(=O)c1sccc1NC(=O)CSCC(=O)O,2.1,-1.2
COc1ccc(/C(C)=N/NC(=O)C2C3CCCCC32)c(OC)c1 (centres undefined),0.69,0.3
COc1cc(NC(=O)c2cccc(Cl)c2)ccc1NC(=O)c1cccs1,0.46,-0.11
CNc1nc(C)c(C(=O)c2ccc(Cl)cc2)s1,0.73,-0.02
O=C(O)CCCCCNc1ccc2nsnc2c1[N+](=O)[O-],0.29,0.07
CC(C)(C)NC(=O)c1cc([N+](=O)[O-])ccc1N1CCCCC1,0.03,-0.62
COc1ccc(OC)c(S(=O)(=O)N(C)CC(=O)N2CCCCC2)c1,0.18,-0.56
CCCCOc1ccc(/C=N/NC(=O)C2CCCNC2=O)cc1 (centres undefined),1.4,-2
CCOC(=O)c1ccc(NC(=O)C(C)N2C(=O)c3ccccc3C2=O)cc1 (centres undefined),0.75,-1.5
Cc1cc(OCC(=O)NC2CC(C)(C)NC(C)(C)C2)c2c(C)c(C)c(=O)oc2c1,0.81,-1.7
Cc1ccc(NC(=O)COC(=O)Cn2cnc3c2c(=O)n(C)c(=O)n3C)cc1Cl,1.4,-1.3
O=c1cc(-c2cccs2)oc2ccc(Cl)cc12,1.2,0.55
COc1ccc(CNC(=O)NC(C)(C)c2cccc(C(C)(C)NC(=O)NCc3ccc(OC)cc3)c2)cc1,1.3,-1.3
COc1ccc(CN2CCNC(=O)C2CC(=O)NCc2cccc(C)n2)c(OC)c1 (centres undefined),0.05,-0.4
O=C(CC(NC(=O)C(F)(F)F)c1ccccc1)Nc1nnc(CCc2ccccc2)s1 (centres undefined),0.33,-1.4
Cc1ccc(CN2CCC(n3nccc3NC(=O)c3ccc4c(c3)OCO4)CC2)o1,0.49,2.5
O=C(Nc1ccc(N2CCCCC2)cc1)c1cccnc1Cl,1.3,0
Cc1cc(F)c(F)cc1C(=O)N1CCCC1,0.98,-0.75
FC(F)(F)c1cccc(Cc2noc(CN3CCCC(CN4CCCC4)C3)n2)c1 (centres undefined),1.5,0.01
O=C(Nc1ccc(S(=O)(=O)Nc2ncccn2)cc1)c1cc([N+](=O)[O-])ccc1Cl,0.25,1
O=C(OCC(=O)N1CCN(c2ccccc2)CC1)c1ccccc1OC(F)F,1.4,1.9
O=C(Cn1ncc2c([nH]c3ccccc32)c1=O)NCC1CCN(Cc2ccc(F)cc2)CC1,0.18,-1.2
CCOc1ccc(NC(=O)C2C3C=CC4(CN(C(C(=O)OC)C(C)C)C(=O)C24)O3)cc1 (centres undefined),0.77,0.72
Cc1ccc(Nc2nc(N)nc(CSc3nc4ccccc4s3)n2)cc1,1.6,0.37
O=C(CN(CC1CCCO1)C(=O)CCC(=O)Nc1nccs1)NCC1CCCO1 (centres undefined),1.2,-1
COc1cc(OC)cc(C(=O)NCCn2ccc3ccccc32)c1,0.01,-1.2
CS(=O)(=O)c1ccc(-c2nn[nH]n2)cc1,0.14,0.7
Cc1ccc(C(=O)NC(=S)Nc2ccccc2N2CCCC2)cc1[N+](=O)[O-],0.45,0.04
CCOC(=O)c1nnn2c1nc(N1CCN(C)CC1)c1ccccc12,0.12,-1.6
CCC(Cc1ccccc1)NC(=O)CCNS(=O)(=O)c1cc(Br)cnc1N (centres undefined),0.03,-1.7
Fc1cccc(-c2nnn3c2nc(Cl)c2ccccc23)c1,0.22,2.3
COc1ccc(NC(=O)NC2(C(=O)N3CCOCC3)CCCCC2)cc1,0.1,-0.05
Fc1ccccc1/C=N/n1c(COc2ccccc2)n[nH]c1=S,0.35,0.06
S=C(NC1CCCCC1)c1ccc2c(c1)OCO2,0.44,-0.35
COc1cccc(NC(=O)c2csc3c2CCCC3)c1,8*,0.45*
CC(C)Oc1ccc(CNC(=O)Cn2c(=O)c3cccn3c3cccnc32)cc1,1.6,-1.4
CC(Sc1nnnn1-c1ccc(Cl)cc1)C(=O)NCC(=O)Nc1ccc(F)c(F)c1F (centres undefined),0.55,-0.41
COC(=O)C1=C(C)N(Cc2ccccc2)C(=O)N[C@H]1c1ccc(Br)cc1,1.3,0.67
CCOc1ccc(-c2nnc(N(CC)C(=O)C3CCC3)s2)cc1,0.25,1.7
Cc1noc(C)c1S(=O)(=O)N1CCC(C(=O)Nc2ccc(OC(F)(F)F)cc2)CC1,0.96,0.39
CC(=O)Nc1ccccc1-c1nn[nH]n1,0.05,-0.69
CCOc1ccccc1C(=O)Nc1ccccc1C(N)=O,0.61,1.6
O=C(OCc1cc(-c2ccccc2)no1)c1ccc2ccccc2n1,1.3,0.77
Cc1cc(NS(=O)(=O)c2ccc(NC(=O)c3ccc(Br)o3)cc2)nc(C)n1,0.3,-0.49
O=C(Cc1ccc(Cl)cc1)Nc1ncccn1,0.87,1.8
CC(C)c1ccc(NC(=O)N2CCN(S(=O)(=O)c3ccccc3)CC2)cc1,7.3*,-0.02*
COc1ccc(/C=N/n2c(C)nc3ccccc3c2=O)cc1OC,0.01,-0.95
CN(c1cccc2cccnc12)S(=O)(=O)c1ccccc1,0.41,-1.1
CCc1cc2c(=O)n(-c3ccccc3)c(=S)[nH]c2s1,1.5,-0.9
COc1ccc(-n2c(SCc3nnc(-c4ccccc4)o3)nnc2-c2ccccc2)cc1,0.1,0.46
c1csc(-c2csc3ncnc(NCCCN4CCOCC4)c23)c1,2.7,-1.1
NS(=O)(=O)c1ccc2ccccc2c1,0.19,1.4
COc1ccc(C(=O)COc2ccccc2N2C(=O)C3C4C=CC(C4)C3C2=O)cc1 (centres undefined),1.4,-1.1
COc1cccc(CNS(=O)(=O)c2cc3c(cc2Cl)NC(=O)CO3)c1,0.16,-0.57
Cc1ccc(N2C(S)=C(C#N)C(=O)NC23CCCCC3)cc1,1.3,-2.3
COC(=O)CSc1nnc(CNc2ccc(F)cc2)o1,0.62,-0.08
COc1cccc(C(=O)NC(=S)Nc2ccc(N(C)C)cc2)c1,1.3,1.1
COCCNc1nc(C)cc(-c2cc(C(=O)NC3CCCC3)on2)n1,0.05,0.27

# (cont.)
SMILES,KCNQ2 pot,KCNQ2 pot baseline
CN(Cc1c(C(=O)N2CCCCCCC2)nc2ccc(Cl)cn12)C1CCOC1 (centres undefined),0.17,0.43
CCn1c(=O)c2cc(C(=O)N3CCN(C)CC3)sc2c2ccccc21,4.2,0.02
CC(CN1CCOCC1)OC(=O)c1cccs1 (centres undefined),1.4,1.2
COC(=O)c1ccc(S(=O)(=O)NCc2ccc(OC)cc2)n1C,0.86,0.22
COc1ccc(OC)c(NC(=O)C2C3CC4OC(=O)C2C4C3)c1 (centres undefined),0.86,0.02
O=C(CCc1c[nH]c2ccccc12)N1CCN(S(=O)(=O)c2ccccc2)CC1,0.96,-0.08
CCCOC(=O)c1ccc(-c2ccc(C=O)o2)cc1,1.9,-0.03
O=C(NCCN1CCCCCC1)C1CCCN1S(=O)(=O)c1cccc2nsnc12 (centres undefined),1.2,0.08
CC(C)(C)C1CCC(C(=O)NCC(c2cccs2)N2CCOCC2)CC1 (centres undefined),6.5*,2.2*
CN(C)c1c(F)cc(C(=O)NCc2ccccc2)cc1F,0.57,0.42
Cc1cc(C)c2c(=O)[nH]n(C3CC(C)N(C)CC3C)c2n1 (centres undefined),0.03,-0.61
CC1CCN(C(=O)CSc2nc(C3CC3)nc3ccccc23)CC1,3.7,0
Nc1nc2c(s1)C(=O)CC(c1ccccc1)C2 (centres undefined),0.03,-2.8
Cc1ccc(CNC(=O)CCNC(=O)Cn2ccc3ccccc3c2=O)o1,0.07,1.4
CC(CN1C(C)CCCC1C)OC(=O)c1cccc(Br)c1 (centres undefined),0.02,-0.18
CC1CCN(S(=O)(=O)c2ccc(S(=O)(=O)N3CCC4(CC3)OCCO4)cc2)CC1,0.03,-0.79
C=CCn1c(O)c(N=NC(=O)OCC)c2ccccc21,0.04,0.13
COc1cccc(OCC(=O)NNC(=O)c2ccc3ccccc3c2)c1,0.19,0.23
OCC#CCSc1nnc(-c2ccc(Br)cc2)o1,4.2,-1.4
COc1ccc(CCNC(=O)C2CCN(C(=O)c3ccc(OC)c(OC)c3)CC2)cc1,0.79,-0.45

# One compound at a time, as listed above. Screens in order: KCNQ2 pot | KCNQ2 pot baseline
# Record of `COc1cccc(OCC(=O)NNC(=O)c2ccc3ccccc3c2)c1` = 0.19 | 0.23
# Record of `Nc1nc2c(s1)C(=O)CC(c1ccccc1)C2` (centres undefined) = 0.03 | -2.8
# Record of `CC1CCN(C(=O)CSc2nc(C3CC3)nc3ccccc23)CC1` = 3.7 | 0
# Record of `Cc1cc(C)c2c(=O)[nH]n(C3CC(C)N(C)CC3C)c2n1` (centres undefined) = 0.03 | -0.61

# (listing goes on)
SMILES,KCNQ2 pot,KCNQ2 pot baseline
Cc1cc(/C=N/NC(=O)c2ccncc2)c(C)n1-c1ccccc1,0.02,-1.9
O=C1NC(=Nc2cccnc2)S/C1=C/c1ccc(F)cc1,0.31,-0.45
O=C(CSCc1ccccn1)Nc1ccccc1,0.46,1.5
Cc1[nH]n(-c2cccc3ccccc23)c(=O)c1/C=N/c1sc2c(c1C#N)CCC2,4.6,-1.4
CC(C)CN(C(=O)CN1C(=O)C2CCCCC2C1=O)c1c(N)n(Cc2ccccc2)c(=O)[nH]c1=O (centres undefined),0.85,-1.3
COc1ccc2cnnc(SCC(=O)Nc3ccc(C(C)=O)cc3)c2c1OC,0.47,-0.25
CCCc1cc(=O)oc2cc(OCC(=O)N3C[C@H]4C[C@@H](C3)c3cccc(=O)n3C4)c(Cl)cc12,0.06,-0.67
O=C(NNC(=S)NC(=O)C12CC3CC(CC(C3)C1)C2)c1ccncc1,0.36,0.87
CCCCN(CCCC)CCCNC(=O)CN1C(=O)COc2ccc(S(=O)(=O)N3CCC(C)CC3)cc21,0.82,0.63
Nc1nnc(CSCc2cccc(Br)c2)s1,1.9,0.13
CC(C)(C)c1ccc(C(=O)C2CCCN(C(=O)c3ccccn3)C2)cc1 (centres undefined),3.1,0.31
O=C(NCc1ccco1)C1CCN(S(=O)(=O)c2ccc(-n3cnnn3)cc2)CC1,1.2,0.73
Cc1nnc(Oc2ccc([N+](=O)[O-])cc2)c2ccccc12,0.78,0.19
Cc1nc2ccc(NC(=O)NCc3ccco3)cc2s1,0.31,-2.8
O=C(Nc1cccc(O)c1)c1ccc(NC(=O)C2CCCO2)cc1 (centres undefined),1,1.5
O=C(NNC(=O)c1ccc(-c2ccccc2)cc1)Nc1ccccc1,0.63,1.1
O=C(NCC(=O)N(Cc1ccccc1)C(C(=O)NCC1CCCO1)c1ccccc1)c1cccs1 (centres undefined),-5.6,x
COc1ccc(NC(=O)C(c2ccc(C)cc2)N(C)C(=O)CC2NC(=O)NC2=O)cc1 (centres undefined),0.07,0.27
COc1ccc(S(=O)(=O)N2CCC(NC(=O)OCc3c(Cl)cccc3Cl)CC2)cc1,0.11,0.32
O=C(NCc1ccncc1)c1c(F)c(F)c(F)c(F)c1F,1.4,0.05

# Another view of some results above:
KCNQ2 pot	KCNQ2 pot baseline	smiles
4.6	-1.4	Cc1[nH]n(-c2cccc3ccccc23)c(=O)c1/C=N/c1sc2c(c1C#N)CCC2
0.85	-1.3	CC(C)CN(C(=O)CN1C(=O)C2CCCCC2C1=O)c1c(N)n(Cc2ccccc2)c(=O)[nH]c1=O (centres undefined)
0.47	-0.25	COc1ccc2cnnc(SCC(=O)Nc3ccc(C(C)=O)cc3)c2c1OC
0.06	-0.67	CCCc1cc(=O)oc2cc(OCC(=O)N3C[C@H]4C[C@@H](C3)c3cccc(=O)n3C4)c(Cl)cc12
0.36	0.87	O=C(NNC(=S)NC(=O)C12CC3CC(CC(C3)C1)C2)c1ccncc1
0.82	0.63	CCCCN(CCCC)CCCNC(=O)CN1C(=O)COc2ccc(S(=O)(=O)N3CCC(C)CC3)cc21

# Later entries
SMILES,KCNQ2 pot,KCNQ2 pot baseline
CN(C)CCNC(=O)c1cc2c(=O)n(C)c3ccccc3c2n1C,0.84,1
O=C(NCCN1CCCC1)c1ccc(Cl)cc1,0.62,1
O=C(Cn1cnc2c(nnn2Cc2ccccc2)c1=O)c1ccccc1,0.75,1.4
COc1ccccc1/C=C1/SC(=O)N(CCC(=O)Nc2ccc(S(=O)(=O)Nc3nccs3)cc2)C1=O,1.2,1.3
Fc1ccccc1Oc1nc(-c2ccncc2)nc2ccccc12,0.38,1.7
COc1ccc(CN2C(=O)c3oc4ccccc4c(=O)c3C2c2ccc(O)c(OC)c2)cc1 (centres undefined),0.72,1.1
O=C(N/N=C/c1c(-c2ccccc2)[nH]c2ccccc12)c1cccnc1,1.9,0.41
Cn1c(=O)n(CC(=O)NCC2CCCO2)c(=O)c2c3c(sc21)CCCC3 (centres undefined),0.43,0
CC(C)NS(=O)(=O)c1ccc(CCC(=O)NCc2ccccn2)cc1,0.09,-0.77
COc1ccc2c(c1)c1c3n2CCN(C)C3=NCC1,1,-0.06
c1ccc(NCC2OCc3ccccc3CO2)cc1,1.9,0
N#Cc1cc([N+](=O)[O-])ccc1NCC1CCCO1 (centres undefined),0.14,-0.96
COC(=O)c1ccc(N(CC(=O)NCC2CCCO2)C(=O)CCC(=O)Nc2cc(C)on2)cc1 (centres undefined),0.49,0.28
NC(=O)C1CCCN(C(=O)c2ccc(Cl)cc2)C1 (centres undefined),0.75,-0.34
O=C(O)CCc1ccc(-c2ccccc2)o1,0.4,-0.07
CCNC(=O)c1ccc(N(C)S(=O)(=O)c2cccs2)cc1,0.18,0.17
NNC(=O)c1cc2cc(Oc3ccccc3)ccc2[nH]1,0.01,1.6

# Reformatted with each value named: 2 of the compounds above
smiles: O=C(O)CCc1ccc(-c2ccccc2)o1
  KCNQ2 pot: 0.4 | KCNQ2 pot baseline: -0.07

smiles: CCNC(=O)c1ccc(N(C)S(=O)(=O)c2cccs2)cc1
  KCNQ2 pot: 0.18 | KCNQ2 pot baseline: 0.17

# An excerpt; count on the stated rates, not on these rows.
